Source: PubChem BioAssay (ICCB-Longwood Screening Facility, Harvard Medical School)
LANA-nucl inh – inhibitors of KSHV LANA-nucleosome binding, primary screen, biochemical, fluorescence polarization, FITC-LANA1-23, chicken nucleosomes | 51,000 tested, 0.3% active | z-score (test concentration not listed) | FITC-LANA1-23 / chicken nucleosome fluorescence polarization; hits give low values;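 active = both repeat wells score below -2 in polarization z-score versus plate sample wells, excluding overly bright wells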;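 note: 100 nL library stock added to about 30 µL; numbers are from one replicate; some results filed as inactive read as strong as hits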
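Test system: purified chicken nucleosomes with FITC-labelled LANA N-terminal peptide (1-23); Input: 240 nM purified chicken nucleosomes (480 nM peptide binding sites), final; Medium: TEN-BT buffer, pH 7.5; Timing: 10–45 min, room temperature; Technique: fluorescence polarization, 480 nm excitation, 535 nm parallel and perpendicular emission; Replication: duplicates.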
Ab BasE inh – BasE siderophore enzyme inhibitors, primary screen, biochemical, Acinetobacter baumannii ATCC 17978, fluorescence polarization | inhibition, % (no concentration beside the values) | 84,000 tested, 0.1% active | purified BasE, fluorescence polarization binding displacement;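 active = both replicates above 25% with normal brightness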;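 note: 0% = negative plate control signal and 100% = positive plate control signal; stock transfer was 100 nL into about 30 µL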
* marks the source's active call; other numbers are inactive results; nt = not tested or not shown; & = joins results of further samples. Only part of the results is shown; rates above refer to the full screens.

SMILES	Ab BasE inh	LANA-nucl inh
CC1=CCC2CC1C(c1ccc(N(C)C)cc1)OC2(C)C (configuration not stated)	2.3	0.57
CC(C)CCNC(=O)C1(C)CCC(=O)N1Cc1cccs1 (configuration not stated)	4.0	0.56
COc1ccc(CC(=O)Nc2ccc(N3CCOCC3)cc2)cc1S(=O)(=O)N1CCOCC1	2.1	nt
CCn1cc(C(=O)Nc2ccccc2)c(=O)c2ccc(C)nc21	2.3	-0.57
NCCN1CCCC1=O	-1.6	2.1
COc1cccc(NC(=O)Cc2ccccc2)c1	nt	-0.12
O=C(COC(=O)c1ccc(S(=O)(=O)Nc2ccccc2)cc1)Nc1nnc(-c2ccccc2)o1	2.6	nt
S=C(c1ccc2c(c1)OCO2)N1CCCC1	2.4	-1.5
CN(c1ccc(Oc2ncnc3c2oc2ccccc23)cc1)S(=O)(=O)c1ccc(Cl)cc1	1.8	nt
COCCNC(=O)c1cccc(OC(C)C)c1	1.4	0.49
CS(=O)(=O)c1ccc(-c2csc(-n3nccc3C(F)(F)F)n2)cc1	1.1	nt
CN1CCN(c2ccc(CNS(=O)(=O)c3cccc4nonc34)cc2)CC1	-0.2	nt
COc1ccc(CCNC(C)C(=O)NC2(C#N)CCCCC2)cc1OC (configuration not stated)	-5.0	nt
CN1CCC(OC(=O)Cc2ccc(Cl)cc2)CC1	3.7	0.15
CC(O)c1nc2ccccc2n1CN1CCN(c2ccccc2)CC1 (configuration not stated)	1.6	nt
CCN(CC)c1nc(SCC(=O)O)nc(N(CC)CC)n1	0.1	-0.15
COc1ccc(CCNC(=O)CCN2C(=O)C(C)Oc3ccc(C)cc32)cc1OC (configuration not stated)	-1.1	-0.46
Cc1cccc(NC(=O)Cn2nnc(C(=O)NCc3cccs3)c2N)c1C	0.8	-0.61
CCCn1c(SCC(=O)Nc2cc(C)on2)nc2sc3c(c2c1=O)CCCC3	-2.7	nt
O=C1N/C(=C/c2ccccc2)C(=O)N1c1cccc(Cl)c1	1.1	nt
C=CCNC(=O)c1cc(C)on1	1.7	-1.3
CC1CCN(S(=O)(=O)c2ccc(C(=O)Oc3ccc4c(c3)OCO4)cc2)CC1	-3.9	nt
CCN(C(=O)c1ccco1)c1nc(CC(=O)Nc2ccc(Cl)cc2)cs1	-1.5	0.083
CCN(CC)S(=O)(=O)c1ccc(NC(=O)CSc2nc3ccccc3o2)cc1	2.6	nt
COc1ccc(Cn2c(=O)sc3ccccc32)cc1	-0.7	-0.56
O=C(OCc1nc2ccccc2s1)c1ccccc1	-0.3	-0.46
O=C(N/N=C\c1cc(Cl)ccc1O)c1ccc(S(=O)(=O)N2CCCCC2)cc1	0.6	-0.31
CCn1c(=O)c(=O)n(CC)c2cc(N3CCCCC3)c(NC(=O)c3ccccc3)cc21	0.1	-0.017
CN(C)c1ccc(C(=O)NC2CCSC2=O)cc1 (configuration not stated)	-3.4	0.66
N#CC1=C(N)Oc2c(c(=O)oc3ccccc23)C1	4.3	-0.29
COC(=O)C1=CN(C2CC2)C=C(C(=O)OC)C1c1ccccc1	-2.9	nt
COc1ccccc1C/C(N)=N/OC(=O)c1ccccc1	-1.1	-0.6
CCN(C(=O)Nc1cc(NC(=O)N(CC)C2CCCCC2)c(C)nc1C)C1CCCCC1	1.3	nt
COc1ccccc1NC(=O)CSc1cc(C(F)(F)F)cc(C(F)(F)F)c1	2.2	nt
Cc1cc(C(=O)NCc2ccc(N3CCOCC3)cc2)nn1C	2.6	-0.17
Cn1c(=O)c2conc2n(C)c1=O	1.3	0.064
N#Cc1ccccc1NC(=O)COC(=O)C1CCCCC1	2.1	nt
Fc1cccc(Cl)c1CSc1ccccc1C1=NCCCN1	0.3	nt
Cc1cc(Nc2ccc3ccccc3n2)n(-c2ccccc2)n1	2.8	nt
C#CCN=Cc1ccc(OCCC)cc1O	3.5	nt
COCCN1CN(Cc2ccccc2)c2nc3ccccc3n2C1	0.9	nt
COc1cccc(NC(=S)NC(Cc2ccccc2)c2ccccc2)c1 (configuration not stated)	-1.5	nt
Cc1ccc(S(=O)(=O)Nc2c(C)[nH]c(=O)[nH]c2=O)cc1	-0.2	0.12
O=C(Cn1[nH]c(=O)c2ccccc2c1=O)N1CCN(C/C=C/c2ccccc2)CC1	-1.2	nt
CC(C)(C)c1csc(NC(=O)C(CC(=O)O)NCc2ccco2)n1 (configuration not stated)	1.7	-0.44
C=CCN=Cc1c(NCC=C)nc2ccccn2c1=O	1.6	0.46
Cc1nn(-c2ccccc2)c2c1N(C(=O)CCC(=O)Nc1ccccc1Cl)CCS2	-0.3	0.86
Cc1cc(C(=O)O)cs1	-3.2	2
CC1(C)CC(=O)C(C=NCCCN2CCCC2=O)=C(O)C1	0.7	0.27
COCC(=O)N(CC1CCCO1)c1nnc(C)s1 (configuration not stated)	-1.4	0.01

Compounds from the list above that have a CF3 group:
SMILES	Ab BasE inh	LANA-nucl inh
CS(=O)(=O)c1ccc(-c2csc(-n3nccc3C(F)(F)F)n2)cc1	1.1	nt
COc1ccccc1NC(=O)CSc1cc(C(F)(F)F)cc(C(F)(F)F)c1	2.2	nt

Continued:
SMILES	Ab BasE inh	LANA-nucl inh
CC(On1nnc2ccc(C(F)(F)F)cc21)C(=O)Nc1ccc(C#N)cc1 (configuration not stated)	1.1	nt
CC1CCc2c(sc(NC(=O)CN(Cc3ccccc3)Cc3ccccc3)c2C#N)C1 (configuration not stated)	nt	0.013
CCc1ccccc1NC(=O)CNC(=O)c1n[nH]c(=O)c2ccccc12	1.2	nt
CC1(C)CC2(CCO1)OC(=O)CC2C#N (configuration not stated)	-0.5	0.43
COc1ccc(N2CCN(C(=O)CCCN3C(=O)CSC3=S)CC2)cc1	-7.3	nt
CCc1cccc2c(C(=O)COC(=O)/C=C/c3ccco3)c[nH]c12	0.4	nt
CC(=O)Nc1ccc(S(=O)(=O)Nc2ccccc2C(=O)NC(C)(C)C)cc1	-0.8	-0.34
COC(=O)c1cn(NC(=O)C2CCC(C)CC2)c(=O)c2ccccc12 (configuration not stated)	-2.4	1.2
COc1ccc(/C=C2\SC(=O)N(CC(N)=O)C2=O)cc1	-2.2	1.5
O=C(COc1ccccc1)N1CCNCC1	-2.7	-0.52
O=C(Nc1ccc2c(c1)OCO2)Nc1ccc(N2CCOCC2)c2nonc12	3.4	-0.33
CCOc1ccc(C(=O)N(C)CC2COc3ccccc3O2)cc1 (configuration not stated)	0.5	-0.68
COc1cccc(C(=O)Nc2nc3cc4c(cc3s2)OCO4)c1	0.7	-1
CC(c1ccccc1)n1c(=O)[nH]c2ccccc21 (configuration not stated)	-0.5	0.22
COc1ccc(/C=C(\C#N)c2cccs2)cc1	0.1	nt
CN1C2CCC1CC(NC(=O)CSc1ccc(F)cc1F)C2 (configuration not stated)	nt	1.2
Nn1c(SCc2ccccc2)nnc1C(F)(F)F	3.0	-0.76
O=S1(=O)N=CNc2ccc(S(=O)(=O)N3CCc4ccccc43)cc21	-43	0.1
Cc1nn(C2CCS(=O)(=O)C2)c2nc(C3CC3)cc(C(=O)OCC#N)c12 (configuration not stated)	-2.8	nt
COc1nc(OC)nc(N2CCN(c3ccccc3F)CC2)n1	2.2	-1.2
COC(=O)c1sc(S(=O)(=O)N2CCCC2)c(C(=O)OC)c1C	0.5	0.13
NS(=O)(=O)c1cc(Cl)c(Cl)c(S(N)(=O)=O)c1	0.6	0.34
CCCN1CCC(NCc2cccc(C(F)(F)F)c2)CC1	3.3	-0.36
COc1ccc(CCN(C)c2ccc(S(=O)(=O)N(C(C)C)C(C)C)cn2)cc1OC	1.1	nt
Cc1ccc(CN(C)C(=O)Cc2ccc3c(c2)OCCO3)o1	0.6	nt
CCOC(=O)C1=C(C)N=C2c3ccccc3C(=O)C2C1c1ccc(Br)cc1 (configuration not stated)	-0.3	nt
O=C(COC(=O)c1cc(O)c(O)c(O)c1)c1ccc(C2CCCCC2)cc1	1.2	nt
O=C(NCCc1ccccc1)c1ccc(CS(=O)c2cccc(Cl)c2)o1 (configuration not stated)	-2.3	0.13
CCN(CC)S(=O)(=O)c1ccc(N2CC(C(=O)N3CCOCC3)CC2=O)cc1 (configuration not stated)	1.0	nt
CN1CCN(CCCNC(=O)c2cn(C)c(=O)c3c2c2ccccc2n3C)CC1	0.3	-0.58
COC(=O)C1(C(=O)OC)C(C)(C)C1(C(=O)OC)C(=O)OC	1.9	0.19
O=S1(=O)NC(=NCC(c2ccc(F)cc2)N2CCOCC2)c2ccccc21 (configuration not stated)	2.6	nt
O=C(CSc1n[nH]c(=O)n1-c1ccccc1)c1ccc2c(c1)OCCO2	-1.3	nt
CN(C)C(=O)Oc1ccc[n+](C)c1	-2.9	-0.042&-0.16
Cc1ccc(Cl)cc1NC(=O)CC1SC(N)=NC1=O (configuration not stated)	-0.9	-0.022
CN(c1ccc(C(=O)N2CCN(c3ccc(F)cc3)CC2)cc1)S(C)(=O)=O	0.1	-0.67
Cc1ccc(/C=C/C(=O)OCc2cc(Cl)cc3c2OCOC3)o1	-0.7	nt
CCN1c2ccccc2-c2nc3ccccc3n2C1c1ccco1 (configuration not stated)	-0.5	-0.55
O=c1c2ccccc2nnn1COc1cccc(Cl)c1	1.7	nt
O=C(Cc1ccccc1)NC1CCSc2ccccc21 (configuration not stated)	-0.6	nt
CCN1CCN(C2=NC(C(=O)Nc3ccccc3)CC(=O)N2)CC1 (configuration not stated)	-1.4	-1.5
Cn1c(S(=O)(=O)Cc2ccc(Br)cc2)nc2ccccc21	-1.9	-0.096
Cc1ccc(Cn2c(=N)n(CC(=O)O)c3ccccc32)cc1	2.7	nt
O=C(O)c1cc2cc3ccccc3nc2s1	0.2	0.11
O=c1cc(NCc2ccccc2)[nH]nc1-c1ccccc1	0.9	nt
O=C(Cn1cnc2ccccc2c1=O)N1CCCc2ccccc21	-1.0	nt
CN(CCNc1nc(-c2ccccc2)no1)C1CCCCC1	2.0	-0.23
Nc1cccc2ncccc12	2.3	nt
Cc1nn(Cc2c(F)c(F)c(F)c(F)c2F)c(C)c1NC(=S)NCc1ccco1	3.8	-1.2
CC(=O)N(c1ccc2oc3c(c2c1)CCCC3)S(=O)(=O)c1ccc(F)cc1	-0.1	0.62

(further entries)
SMILES	Ab BasE inh	LANA-nucl inh
O=C(O)c1ccc(N2CCOc3ccccc32)s1	7.8	0.91
Cn1c(=S)n(CN2CCC(C(N)=O)CC2)c2ccccc21	-0.7	-0.51
CC(C)NC(=O)Cn1ncn2c(cc3ccccc32)c1=O	-1.3	-0.46
Cc1cc(C)cc(N2C(=O)CC(c3ccc4c(c3)OCO4)C3=C2CCCC3=O)c1 (configuration not stated)	-1.0	0.95
CC(=O)N1CCC(N(Cc2cccnc2)C(=O)Nc2ccc(Cl)cc2)CC1	0.4	0.53
COc1ccc(C2CC(c3ccccc3)=NN2C(=O)CSc2nnc(-c3cccnc3)n2N)cc1 (configuration not stated)	-7.3	nt
CN(CC(=O)Nc1cc(C(F)(F)F)ccc1N1CCOCC1)S(=O)(=O)c1ccc(Cl)cc1	0.1	nt
c1ccc(Cc2nc3c4c5c(sc4ncn3n2)CCCC5)cc1	-1.2	nt
CCCn1cnc2c(cnn2-c2ccccc2C)c1=O	-3.3	2.2
CCOC(=O)[C@@H](CCc1ccccc1)NC(C)C(=O)N1CCC[C@@H]1C(=O)O (some centres not stated)	0.1	0.55
O=c1onc(-c2ccc(Cl)cc2)n1Cc1ccc(F)cc1	-2.4	0.79
COc1ccc(C2CC(=O)N(C)C3=C2C(=O)CC(C)(C)C3)c(OC)c1 (configuration not stated)	-2.1	-0.1
O=C(COCc1cc(-c2ccco2)on1)N1CCCC1	2.5	0.19
CCOc1ccc(NC(=O)CN2CCN(CC(=O)Nc3ccc(OCC)cc3)CC2)cc1	-1.7	0.75
O=C1CC(c2ccccc2)CN1C(=O)c1cccnc1 (configuration not stated)	2.5	nt
O=C(Nc1ccccc1)c1ccc(S(=O)(=O)N2CCCC2)cc1	-0.4	0.24
Cc1cc2ncc(-c3ccnc(SCCS(=O)(=O)c4ccccc4)n3)c(C)n2n1	2.1	nt
NC(=O)C1(S(=O)(=O)c2ccccc2)CCCCC1	-0.4	-1.2
COc1cc(NC(=S)N(C)C)c(OC)cc1Cl	1.4	nt

5 entries already listed, sorted by count of non-hydrogen atoms, largest number first.
SMILES	Ab BasE inh	LANA-nucl inh
COc1ccc(C2CC(c3ccccc3)=NN2C(=O)CSc2nnc(-c3cccnc3)n2N)cc1 (configuration not stated)	-7.3	nt
CCOC(=O)[C@@H](CCc1ccccc1)NC(C)C(=O)N1CCC[C@@H]1C(=O)O (some centres not stated)	0.1	0.55
O=C(Nc1ccccc1)c1ccc(S(=O)(=O)N2CCCC2)cc1	-0.4	0.24
O=c1onc(-c2ccc(Cl)cc2)n1Cc1ccc(F)cc1	-2.4	0.79
O=C1CC(c2ccccc2)CN1C(=O)c1cccnc1 (configuration not stated)	2.5	nt
